# SARS PLpro yeast: qHTS of Yeast-based Assay for SARS-CoV PLP; S. cerevisiae expressing SARS-CoV PLpro, growth rescue; control for the full effect not named in the record; Potency, µM (titrated, usually from 32.9 µM), inactives show at the top dose activity, positive = growth rescue; hit rate 0.19% among 330,000; active means well fitted rising curve with a large enough effect; inconclusive means small, poorly fitted or top-dose-only effect; inactive means no such curve, though single readings can be large or run the other way; also: 0% is about no effect; nearly all actives have a fitted effect of over 55% in size; growth read by luminescence after 48 h
# LASV entry inh: qHTS for Inhibitors of binding or entry into cells for Lassa Virus; Potency, µM (top dose mostly 37.9 µM), inactives show at the top dose activity change, negative = inhibition, usual class: inhibitors; Lassa virus pseudotype entry inhibition, cell reporter; control for the full effect not named in the record; AID 540256, 2011; hit rate 1.2% among 300,000; active means well fitted inhibition curve with a large enough effect; inconclusive means small, poorly fitted or top-dose-only effect, or effect the other way; inactive means flat fitted curve, though single readings scatter; tested in HEK293 cells; also: % is scaled to controls: 0 for no effect and ±100 for the full control effect; nearly all actives have a fitted effect of over 50% in size; luciferase read-out
# Cruzain noTriton: qHTS Assay for Promiscuous and Specific Inhibitors of Cruzain (without detergent); Cruzipain (Trypanosoma cruzi), P25779; purified cruzain, Z-FR-AMC fluorescence, no detergent; Potency, µM, for the others: max response, negative = inhibition, usual class: inhibitors; hit rate 2.3% among 200,000; AID 1476, 2009;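 also: plate controls were enzyme without inhibitor for no effect and buffer without enzyme for full effect; nearly all actives have a fitted effect of over 40% in size; top concentration of the series not given in the record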
# Target sequence (P25779 123-467 limits assumed): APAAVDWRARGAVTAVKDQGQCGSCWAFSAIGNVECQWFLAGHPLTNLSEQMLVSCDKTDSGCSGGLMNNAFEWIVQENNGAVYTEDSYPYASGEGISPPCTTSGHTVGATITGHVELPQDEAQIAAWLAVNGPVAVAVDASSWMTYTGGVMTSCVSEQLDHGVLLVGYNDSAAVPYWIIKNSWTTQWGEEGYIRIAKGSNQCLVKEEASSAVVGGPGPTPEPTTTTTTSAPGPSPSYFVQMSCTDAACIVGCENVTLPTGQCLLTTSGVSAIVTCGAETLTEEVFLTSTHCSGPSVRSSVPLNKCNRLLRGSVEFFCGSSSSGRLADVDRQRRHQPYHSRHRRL
#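 Detergent-free condition (0.00005% Triton X-100) in acetate buffer pH 5.5 with DTT. 1.5 nM enzyme and compound were pre-mixed 15 min, then 2 uM Z-FR-AMC substrate added; reaction progress from fluorescence change between first and third reads (60 s).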
# RE007 growth inh: qHTS Assay for Inhibitors of the HIV-1 protein Vpr; S. pombe RE007 Vpr strain, BacTiter-Glo ATP luminescence, 24 h; control for the full effect not named in the record; Potency, µM (series often up to 92.2 µM), for inactives: at the top dose activity change, negative = less growth; hit rate 0.21% among 360,000; AID 651644, 2012; active = well fitted falling curve with a large enough effect; inconclusive = small, poorly fitted or top-dose-only effect; inactive = no such curve, though single readings can be large or run the other way;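 also: % is scaled to controls: 0 for no effect and ±100 for the full control effect; nearly all actives have a fitted effect of over 50% in size; the assay follows cell death caused by Vpr and the record does not say whether a fall means rescue or toxicity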
#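 Fission yeast RE007 carrying one integrated HIV-1 vpr copy, seeded at OD 0.01 in PMG+AL medium with 23 nL pinned compound. Grown 24 h at 30 degrees; viability read by BacTiter-Glo luminescence after 5 min.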
# Marburg entry inh: qHTS for inhibitors of binding or entry into cells for Marburg Virus; hit rate 1.8% among 300,000; Marburg virus pseudotyped entry inhibition, cell reporter; control for the full effect not named in the record; about a third of the inactives were read at about 46 µM; Potency, µM (highest dose often 37.8 µM), without a hit: at the top dose activity change, negative = inhibition, hits mostly inhibitors; AID 540276, 2011; active = well fitted inhibition curve with a large enough effect; inconclusive = small, poorly fitted or top-dose-only effect, or effect the other way; inactive = flat fitted curve, though single readings scatter; tested in HEK293 cells; about a fifth of its hits are not listed in these tables; also: % is scaled to controls: 0 for no effect and ±100 for the full control effect; luciferase read-out
# NS1 function inh: qHTS Assay for Inhibitors of Influenza NS1 Protein Function; S. cerevisiae slowed by influenza A NS1, growth recovery by OD600; Potency, µM (titrated, usually from 46.1 µM), inactives show at the top dose activity, positive = more growth; hit rate 0.4% among 270,000; active means well fitted rising curve with a large enough effect; inconclusive means small, poorly fitted or top-dose-only effect; inactive means no such curve, though single readings can be large or run the other way; also: nearly all actives have a fitted effect of over 50% in size
#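 Recovery from NS1-induced slow growth read by OD600 in budding yeast switched to galactose assay medium (pH 6.0, -URA) at 1:100 dilution. Compound 23 nl per well; the matching strain lacking NS1 serves as control.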
# 2A StopGo: High Throughput Screening for Foot and Mouth Disease Virus Antivirals; human cells with a luciferase reporter of 2A StopGo recoding; control for the full effect not named in the record; Potency, µM (highest dose often 57.9 µM), without a hit: top-dose signal change, negative = less light; hit rate 1.2% among 410,000; active = well fitted falling curve with a large enough effect; inconclusive = small, poorly fitted or top-dose-only effect; inactive = no such curve, though single readings can be large or run the other way; tested in HEK293T cells; also: % is scaled to controls: 0 for no effect and ±100 for the full control effect; nearly all actives have a fitted effect of over 45% in size; luciferase light after 4 h
# Cruzain Triton: qHTS Assay for Promiscuous and Specific Inhibitors of Cruzain (with detergent); purified cruzain, Z-FR-AMC fluorescence, 0.01% Triton; Potency, µM, inactives show max response, negative = inhibition, most hits filed as inhibitors; hit rate 0.43% among 200,000; AID 1478, 2009;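 also: plate controls were neutral wells for no effect and buffer without enzyme for full effect; nearly all actives have a fitted effect of over 40% in size; top concentration of the series not given in the record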
#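 Z-FR-AMC hydrolysis (2 uM substrate) by cruzain (1.5 nM) monitored kinetically at ex 360/em 450 nm after 15 min room-temperature compound exposure; 0.01% Triton X-100, pH 5.5, 5 mM DTT.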
# * hit, by the source's call; ? = inconclusive; . = no result given; & = joins results of further samples; [ ] = dose if it differs, or a comment. Unless noted, calls follow the shape of the dose curve; as a rule, active = well fitted curve in the direction sought with a large enough effect; inconclusive = small, poorly fitted or top-dose-only effect, or another doubt; inactive = no such curve, though single readings can be large; an effect the other way counts as inactive or inconclusive. Potency is read from the fitted curve at half-maximal effect.
canonical_smiles,SARS PLpro yeast,LASV entry inh,Cruzain noTriton,RE007 growth inh,Marburg entry inh,NS1 function inh,2A StopGo,Cruzain Triton
Cc1cc(C)n(-c2nncn2/N=C/c2ccccc2F)n1,0%,-14%,-6%,15%,3%[46.1 µM],1%,-5%,-0.1%
CCCCN(CC)CCCNC(=O)c1ccc2c(c1)N(CC)C(=O)c1ccccc1S2(=O)=O,-2%,?,.,-5%,?,1%,-7%,.
Cc1ccc2c(c1)cc(C)c1nnc(SCC(=O)NCc3ccco3)n12,-1%,-3%,?,0%,4%,-7%,.,-2.1%
CCCCN(CC)CCCNC(=O)c1nn(-c2ccc(OC)cc2)c(=O)c2c1c1ccccc1n2C,.,19%[46.1 µM],-3%,.,-6%[46.1 µM],.,-10%,-2.4%
CC1(C)CC(NC(=S)NCc2ccco2)CC(C)(C)N1,0%,.,.,-21%,.,5%,2%,.
CC(C)(C)C(=O)NC(=S)Nc1cc(C(=O)O)ccc1Cl,3%,14%,1%,-5%,?,-7%,5%,2.1%
CN1CCN(/N=C/c2ccc(Cl)c(Cl)c2)CC1,-26%,?,9%,?,?,-10%,37%[activator],-6.2%
CSc1c(CC(=O)Nc2ccccc2)n(C)c2ccccc12,-2%,.,.,6%,.,-8%,-3%,.
COc1cccc(CNC(=O)c2cc(-c3ccc(Cl)cc3)n[nH]2)c1,.,18%[46.1 µM],-4%,.,.,.,-1%,-10%
CCOc1cc(C#N)c(-n2nnc3c(sc4nc(C)cc(C)c43)c2=O)cc1OCC,.,24%[46.1 µM],-3%,.,?,.,-21%,1.0%
COc1cc(C(c2nnnn2C(C)(C)C)N2CCN(c3nc4ccccc4s3)CC2)ccc1O (stereo unspecified),0%,0%,22%,-10%,14%[46.1 µM],-35%,-21%,-13%
CCN(CC)C(=O)C12CC3CC(CC(Br)(C3)C1)C2,-2%,15%[46.1 µM],.,-2%,?,.,-1%,.
CCOC(=O)c1ccccc1NC(=S)N1CCCCC1,?,-20%,-13%,4%,?,0%,67%[activator],-0.7%
CC(C)[C@H](NC(=O)c1ccccc1)C(=O)OCC(=O)N1CC(=O)Nc2ccccc21,24%,-1%,-12%,-11%,10%,-7%,-20%,-2.4%
Cc1oc2ccc(O)c(CN3CCN(C)CC3)c2c1C(=O)Nc1cccc(Cl)c1C,.,21%[46.1 µM],-1%,.,-7%[46.1 µM],.,-11%,-2.3%
C=CCN1C(=O)/C(=C\c2ccc(N3CCOCC3)o2)C(=O)NC1=S,-6%,-4%,-10%,.,-3%,6%,-12%,-8.6%
COc1cc(NC(=O)CCNS(=O)(=O)c2cc(Br)cnc2N)cc(OC)c1,17%,-6%[46.1 µM],.,2%,-12%[46.1 µM],3%,-2%,.
Cc1cccc(N2C(=O)CS(=O)(=O)C23C(=O)N(Cc2c(F)cccc2Cl)c2ccccc23)c1 (stereo unspecified),.,-19%[46.1 µM],3.2µM*,.,.,.,?,-4.2%
Cc1nn(C)cc1/C=N/NC(=O)CSc1ccccn1,0%,?,.,-10%,-22%,6%,21%,.
O=C(c1cccc([N+](=O)[O-])c1)c1ccc2c(c1)C(=O)NC2=O,-1%,12%,.,8%,3%[46.1 µM],.,-4%,.
CCN(CC)CCN1C(=O)C(=O)/C(=C(/O)c2ccc(S(=O)(=O)N3CCOCC3)cc2)C1c1ccc(C)cc1 (stereo unspecified),.,0%[46.1 µM],.,-2%,4%[46.1 µM],1%,-7%,.
CCc1nn(CC(=O)NCCc2ccc(OC)cc2OC)c(=O)c2cc3c(OC)cccc3n12,.,.,-8%,.,23%[46.1 µM],.,0%,-0.4%
CCC(=O)N1CCc2cc(CNS(=O)(=O)c3cc(OC)ccc3OC)ccc21,.,-21%[46.1 µM],11%,.,.,.,52%[activator],1.2%
CC(C)Sc1nc2c(cnn2-c2ccccc2)c(=O)[nH]1,6%,-6%,-18%,1%,?,-141%,-7%,-0.4%
CN(C(=O)c1cccc(OC2CCN(S(=O)(=O)N(C)C)CC2)c1)C1CCOC1 (stereo unspecified),0%,.,.,-1%,.,8%,30%[activator],.

# (continued)
canonical_smiles,SARS PLpro yeast,LASV entry inh,Cruzain noTriton,RE007 growth inh,Marburg entry inh,NS1 function inh,2A StopGo,Cruzain Triton
COC(C[C@@H]1O[C@@H]1[C@H](O)[C@@H](C)OCc1ccccc1)OC,-9%,.,.,-8%,.,-2%,-9%,.
COC(=O)C1=C(C)N(Cc2ccccc2)C(=NCc2ccccc2)N[C@H]1c1cccc(F)c1,-2%,.,.,2%,.,-6%,?,.
O=C1CC2(CCCCC2)Oc2ccc(O)cc21,-12%,-30%,15%,5%,0%,-31%,-3%,0.4%
O=C1CNC(=S)N1c1nc2ccccc2s1,-15%,0%,.,5%,11%,-115%,6%,.
Cn1ccnc1C(=O)Cc1ccc([N+](=O)[O-])cc1,.,3%,.,-2%,13%[46.1 µM],.,13%,.
Cc1ccc(NC(=O)C2COc3ccccc3O2)cc1C (stereo unspecified),-5%,3%,.,-25%,4%,-39%,29%,.
O=C(Nc1ccc2c(c1)oc1ccccc12)c1ccncc1,-15%,2%,-28%,13%[3.69 µM],?,-85%,18%,1.5%
N=C1S/C(=C\c2cn[nH]c2-c2ccc(F)cc2)C(=O)N1c1ccccc1F,24%,?,?,-10%,16%,?,33%[activator],-3.3%
Cc1ccc(C)c(N2CCN(C(=O)C3CCN(c4nc(-c5ccc(C(C)C)cc5)no4)CC3)CC2)c1,.,?,-2%,.,.,.,?,0.7%
CCN(CC)S(=O)(=O)c1ccc(OC)c(NC(=O)c2cn(CC)c3nc(C)ccc3c2=O)c1,1%,.,.,-8%,.,-2%,-3%,.
COC(=O)Cc1ccc(NC(=O)c2ccccc2Cl)cc1,-1%,?,.,25%,?,1%,37%[activator],.
CCCCOc1ccc(C(=O)NCCc2csc3nc(-c4ccccc4F)nn23)cc1,.,-16%[46.1 µM],21%,.,.,.,0%,-6.8%
COCc1cc(=O)[nH]c(Sc2c(-c3ccccc3)c3ccc(Cl)cc3[nH]c2=O)n1,24%,4%,?,15%,17%,6%,-4%,-2.4%
CCOC(=O)c1cccc(NC(c2nnc(-c3ccccc3)o2)c2ccccc2F)c1 (stereo unspecified),.,-24%[46.1 µM],5%,.,.,.,-7%,-7.8%
COc1cc(/C=C2/C(=N)N3C(SC)=NSC3=NC2=O)ccc1OC(=O)c1ccco1,2%,?,.,-11%,?,0%,41%[activator],.
Cc1ccc(C2=NN(CCC(=O)NCCc3cccc(C)c3)C(=O)CC2)cc1,.,-30%[46.1 µM],?,.,.,.,-22%,-0.6%
Cc1cccnc1NC(=S)NCCc1ccccc1,-2%,?,.,?,?,-41%,13%,.
Cc1ccc(CNC(=O)C2CCCN2S(=O)(=O)c2ccc(Cl)cc2)cc1 (stereo unspecified),6%,.,.,-20%,.,24%,-16%,.
CCOc1ccc(Nc2c3c(nc4nncn24)CCC3)cc1,.,-22%[46.1 µM],5%,.,-23%[46.1 µM],.,?,-2.1%
Cc1ccc(C)c2sc(NC(=O)c3ccc(N4C(=O)CCC4=O)cc3)nc12,-6%,7%,20µM*,3%,1%,13%,-20%,1.7%
COC(CNC(=O)CNC(=S)N(Cc1ccccc1)Cc1cccs1)OC,1%,.,.,0%,2%[46.1 µM],.,1%,.
CCOc1ccc(-c2cc(NC(=O)c3c(F)cccc3F)c(C(=O)OC)s2)cc1,.,23%[46.1 µM],-13%,.,24%[46.1 µM],.,-20%,-2.4%
Cc1ccc(-c2nc3ccccc3[nH]2)cc1N,-33%,?,1%,?,?,-6%,.,2.5%
CCOC(=O)C1CCCN(C(=O)/C=C/c2cccc([N+](=O)[O-])c2)C1 (stereo unspecified),3%,-25%,-7%,-1%,6%,-22%,0%,-3.1%
COc1ccc(CCN(C)C(=O)C2CCN(Cc3cccc(OC)c3OC)CC2)cc1OC,-2%,-6%,.,4%,-15%,0%,-15%,.

# The list goes on.
canonical_smiles,SARS PLpro yeast,LASV entry inh,Cruzain noTriton,RE007 growth inh,Marburg entry inh,NS1 function inh,2A StopGo,Cruzain Triton
Cc1cccc(CSc2nc3c(cc2C#N)CCC3)c1,3%,16%,-7%,-19%,4%,4%,24%,-6.3%
Cc1ccc(NC(=O)CCS(=O)(=O)c2ccc3nc(C)sc3c2)cc1,0%,2%[46.1 µM],5%,-1%,.,-2%,-12%&-2%,0.2%
Cc1cc(-n2nc(C)cc2C)n2ncc(-c3ccccc3)c2n1,7%,1%,-5%,4%,?,-49%,22%,0.4%
COc1cc2c(cc1OC)C(c1cccs1)N(C(=O)C(C)C)CC2 (stereo unspecified),-3%,?,12%,10%[3.69 µM],?,-9%,?,-0.9%
CCOc1cc(-c2c(C#N)c(N)nc3c2CCc2ccccc2-3)ccc1O,-2%,?,5%,24%,?,8%,?,-13%
Cc1c(/C(O)=C2\C(=O)C(=O)N(CCN(C)C)C2c2ccco2)cnn1-c1ccccc1 (stereo unspecified),-2%,-2%,-2%,3%[3.69 µM],8%,-15%,8%,-3.3%
Cc1ccc(-n2nc(C)c3c(C)c(CCC(=O)NC(C)c4ccccc4)c(C)nc32)cc1 (stereo unspecified),-4%,-5%[46.1 µM],-12%&3%,7%,10%[46.1 µM],-11%,2%&-27%,-0.3%&4.1%
N#Cc1c(NC(=O)C2CC(c3ccccc3O)=NO2)sc2c1CCC2 (stereo unspecified),0%,6%,?,.,?,7%,-20%,-11%
Cc1csc2nc(COC(=O)c3ccccc3NC(=O)c3ccc(C(C)(C)C)cc3)cc(=O)n12,.,20%[46.1 µM],-4%,.,.,.,-1%,-0.1%
Cc1c(C(=O)N(Cc2ccccc2)C2CCS(=O)(=O)C2)oc2ccccc12 (stereo unspecified),-2%,.,.,-14%,.,-40%,?,.
Cc1cccc(NC(=O)[C@H](Cc2c[nH]c3ccccc23)NC(=O)[C@@H]2Cc3ccccc3CN2)c1,-9%,.,.,-26%,.,14%,-4%,.
